GLA inh pH 4.5 = alpha-galactosidase A (human) inhibition, pH 4.5 | activity change, negative = inhibition, % at 105 µM | 230,000 tested, under 10 active | P06280 | purified enzyme, 4-MU-alpha-Gal fluorescence, pH 4.5; inconclusive = small, poorly fitted or top-dose-only inhibition, or a rising curve; inactive = flat fitted curve, though single readings scatter; no compound was filed as active;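 further: 0% = full activity with enzyme and -100% = basal without enzyme; dose as in the result columns while the protocol names 77 µM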
Target sequence (P06280 whole entry, looked up): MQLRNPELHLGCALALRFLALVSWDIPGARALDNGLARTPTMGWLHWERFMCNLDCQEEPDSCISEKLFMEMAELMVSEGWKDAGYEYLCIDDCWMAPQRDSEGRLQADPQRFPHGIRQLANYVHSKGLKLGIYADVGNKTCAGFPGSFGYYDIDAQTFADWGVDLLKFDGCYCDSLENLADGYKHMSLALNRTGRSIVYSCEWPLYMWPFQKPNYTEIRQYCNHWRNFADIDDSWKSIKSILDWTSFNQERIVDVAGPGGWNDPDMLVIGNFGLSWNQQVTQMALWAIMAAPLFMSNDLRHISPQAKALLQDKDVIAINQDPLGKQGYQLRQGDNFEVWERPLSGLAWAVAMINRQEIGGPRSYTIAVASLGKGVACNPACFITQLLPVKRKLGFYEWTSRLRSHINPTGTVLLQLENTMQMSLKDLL
miR-21 reporter = miR-21 reporter, rising signal | HeLa miR-21 FLuc reporter, luciferase, 48 h | 340,000 tested, under 10 active | AID 2288 | Potency, µM (series often up to 38.3 µM), for the others: top-dose reporter change, positive = more light; active = well fitted rising curve with a large enough effect; inconclusive = small, poorly fitted or top-dose-only effect; inactive = no such curve, though single readings can be large or run the other way;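 further: % of control where 0% means no effect; miR-21 action dims this reporter so a rising signal means less miR-21 action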
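HeLa cells stably expressing CMV-driven firefly luciferase with a downstream miR-21 binding sequence, endogenously expressing miR-21, were treated with titrations (up to about 40uM final) for 48 hours at 37 degree Celsius. Luciferase luminescence was read after lysis.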
Rango release inh = prevents RanGTP from dissociating the Rango-importin beta complex; O95149+P62826; Biochemical FRET Rango-importin beta, RanGTP-induced dissociation; Potency, µM (titrated, usually from 46.1 µM), inactives show top-dose activity change, negative = inhibition; 0.071% of 340,000 active; active means falling FRET ratio curve, often poorly fitted, with flat reads before Ran was added; inconclusive means other falling curves, or compound fluorescence or quenching; inactive means flat or rising ratio curve;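 further: potency means the concentration at half of the fitted maximal effect; % of control where 0% means no effect; nearly all actives have a fitted effect of over 45% in size; -100% = wells without RanGTP and RCC1; the record marks most hits as doubtful in a second field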
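Rango (0.1 uM)–importin beta (0.25 uM) complex; RanGTP-RCC1 trigger; 45 min RT; CFP/YFP FRET read.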
Rango-impB inh = prevents formation of the Rango-importin beta complex; Q14974; Rango CFP/YFP FRET sensor + importin beta, 45 min; Potency, µM (highest dose often 92.2 µM), inactives show at the top dose inhibition of complex formation; 0.031% of 340,000 active; AID 540263; active = rising FRET ratio curve, often small or poorly fitted; inconclusive = mostly compound fluorescence or quenching in the first reads; inactive = flat curves in all reads;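 further: potency means the concentration at half of the fitted maximal effect; 0% = DMSO wells and 100% = buffer wells lacking importin beta; nearly all actives have a fitted effect of over 15% in size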
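Inhibition scored from the CFP 486 nm/YFP 530 nm FRET ratio 45 min after adding 0.125 microM importin beta to 50 nM Rango biosensor preincubated 5 min with compound (room temperature, PBS with DTT, Tween-20, BSA). No-importin wells as positive control.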
* = called active by the depositor; ? = inconclusive; nt = not tested or not shown; & = joins results of further samples. An excerpt; count on the stated rates, not on these rows.

GLA inh pH 4.5,molecule,miR-21 reporter,Rango release inh,Rango-impB inh
-11,CCc1nnc(NC(=O)CSc2nc3cc4c(cc3cc2C)OCCO4)s1,-1%,3%,1.5%
-15,CCOc1ccccc1Nc1nnc(SCC(=O)N2CCCC2)s1,-10%,-6%,-2.5%
-2,S=C(NCc1ccco1)N1CCN(c2cccc(Cl)c2)CC1,-1%,12%,0.7%
nt,CC(=O)Nc1ccc(NC(=O)Cn2nc(C(=O)Nc3ccc(C)cc3)ccc2=O)cc1,-1%&7%,-11%,-1.0%
nt,COc1cc2c(cc1OC)C(c1ccccc1Cl)N(C)CC2 (configuration not stated),-9%,-12%,3.8%
nt,Cc1cc(C)c2nc(NC(=O)C3CSC4(C)CCC(=O)N34)sc2c1 (configuration not stated),nt,-17%,-1.6%
7,CCC(c1nnnn1C(C)(C)C)N1CCN(Cc2ccccc2OC)CC1 (configuration not stated),-13%,2%,1.1%
-11,CCCc1cc(=O)[nH]c(SCC(=O)N(CC)Cc2ccccc2)n1,-2%,-6%,0.2%
-3,Cc1nc(C)c(C(=O)C2=C(O)C(=O)N(CCCn3ccnc3)C2c2ccc(Cl)cc2)s1 (configuration not stated),-7%,?,?
nt,O=C(/C=C/c1ccco1)c1cccnc1,-2%,9%,0.0%
-12,COc1ccc(C(CC(=O)N2CCCCC2)c2c(OC)cc(OC)c3c(-c4ccccc4)cc(=O)oc23)cc1 (configuration not stated),-2%,-3%,?
1,Cc1nnc(NC(=O)c2cccc(Br)c2)s1,-17%,-8%,-1.5%
-2,CCOc1ccc(CCNC(=O)CCS(=O)(=O)c2ccc(OC)cc2)cc1OCC,-5%,-12%,-4.5%
-1,CCOCc1nnc(NC(=O)CCc2ccccc2)s1,-14%,-19%,0.9%
5,Cc1ccc(NC(=O)Nc2sc(=S)n(C)c2C)cc1,-16%,-1%,-1.7%
nt,Cc1cc(Cl)ccc1OCCCC(=O)NNC(=O)c1ccccc1O,nt,0%,?
nt,COc1ccc(C2CC(c3ccccc3)=NN2C(=O)COC(=O)c2cccc(O)c2)cc1 (configuration not stated),nt,-1%,2.0%
10,COCCNc1nc2nonc2nc1N(C)Cc1ccc(C)cc1,-4%,-8%,-3.5%
1,COc1ccc(Cn2c(S(=O)(=O)CC(N)=O)nc3ccccc32)cc1[N+](=O)[O-],5%,nt,nt
-8,Cn1c(SCC(=O)NCc2ccc3c(c2)OCO3)nc2scc(-c3cccs3)c2c1=O,-5%,1%,0.1%
-8,CCOC(=O)C1CCN(S(=O)(=O)Cc2ccccc2)CC1,4%,-7%,2.3%
2,Cc1cccc(N(Cc2cc3ccccc3[nH]c2=O)S(C)(=O)=O)c1,-3%,-25%,-4.6%
-1,COCCCN=C1NN=C(c2cc(C)n(-c3ccccc3)c2C)CS1,-32%,21%,-2.2%
3,O=C(Nc1ccn(Cc2c(F)c(F)cc(F)c2F)n1)c1ccc(COc2ccc(Cl)cc2Cl)o1,18%,11%,-2.5%
-4,CCOC(=O)C(CCCOc1cccc(OC)c1)C(=O)OCC,-15%,-7%,1.6%
-17,Cc1ccccc1NC(=O)c1ccc2c(c1)C(=O)N(CCC(C)C)C2=O,-4%,-10%,6.1%
10,O=c1cc(O)c2c(=O)n(C3CCCCC3)c3ccccc3c2o1,-12%,?,?
1,CCOC(=O)C1CCN(C(=O)c2sc3nc(C)nc(N4CCC(C)CC4)c3c2C)CC1,-4%,9%,0.3%
nt,CCCCCCc1ccc(N2C[C@H](CCCCC)[C@@H](CC(=O)NCc3ccc(OC)cc3)C2=O)cc1,-1%,0%,-4.1%
nt,COc1ccc(NC(=O)CSCC(=O)Nc2cc(Cl)ccc2N2CCCC2)cc1,10%,?,?

Entries listed so far that contain a Cl atom (six):
GLA inh pH 4.5,molecule,miR-21 reporter,Rango release inh,Rango-impB inh
-2,S=C(NCc1ccco1)N1CCN(c2cccc(Cl)c2)CC1,-1%,12%,0.7%
nt,COc1cc2c(cc1OC)C(c1ccccc1Cl)N(C)CC2 (configuration not stated),-9%,-12%,3.8%
-3,Cc1nc(C)c(C(=O)C2=C(O)C(=O)N(CCCn3ccnc3)C2c2ccc(Cl)cc2)s1 (configuration not stated),-7%,?,?
nt,Cc1cc(Cl)ccc1OCCCC(=O)NNC(=O)c1ccccc1O,nt,0%,?
3,O=C(Nc1ccn(Cc2c(F)c(F)cc(F)c2F)n1)c1ccc(COc2ccc(Cl)cc2Cl)o1,18%,11%,-2.5%
nt,COc1ccc(NC(=O)CSCC(=O)Nc2cc(Cl)ccc2N2CCCC2)cc1,10%,?,?

(more compounds)
GLA inh pH 4.5,molecule,miR-21 reporter,Rango release inh,Rango-impB inh
nt,CN(C)CCCNC(=O)C(=O)NCC1OCCN1S(=O)(=O)c1cccs1 (configuration not stated),-1%,3%,3.6%
nt,O=C(c1ccccc1)N1CCC(CC2CC(c3cccc(Br)c3)=NO2)(C(=O)NCC2CCCCC2)CC1 (configuration not stated),9%,-21%,8.5%
-4,CN(Cc1ccccc1)C(=O)COC(=O)/C=C/c1ccco1,-2%,-9%,-3.3%
nt,CC#CC(=O)NCC1(N(C)Cc2ccccc2)Cc2ccccc2C1,7%,?,0.3%
nt,Cc1cccc(/C=N/NC(=O)c2c(-c3ccccc3)noc2C)c1O,17%,-16%,-1.6%
3,Nc1nc(O)c(CC(=O)O)s1,-4%,1%,0.0%
6,COc1ccc(CN2CCNC(=O)C2CC(=O)NCc2cn3ccc(C)cc3n2)c(OC)c1 (configuration not stated),4%,-19%,?
nt,CC1(C)CCC(=O)N2CC[C@H]3c4cc5ccccc5nc4C[C@@H]1[C@H]32,nt,-8%,3.4%
-13,O=C(/C=C/c1ccncc1)c1ccc2c(c1)OCCO2,?,0%,4.0%
7,CC1(C)CC(=O)C(C=NCc2cccnc2)=C(O)C1,-6%,6%,-1.3%

Results in GLA inh pH 4.5 and Rango release inh, for 2 of the compounds above:
structure | GLA inh pH 4.5 | Rango release inh
COc1ccc(C2CC(c3ccccc3)=NN2C(=O)COC(=O)c2cccc(O)c2)cc1 (configuration not stated) | nt | -1%
COCCNc1nc2nonc2nc1N(C)Cc1ccc(C)cc1 | 10 | -8%

(further entries)
GLA inh pH 4.5,molecule,miR-21 reporter,Rango release inh,Rango-impB inh
8,O=C(CSc1ccc2nnc(-c3ccccn3)n2n1)Nc1nccs1,6%,-4%,-3.6%
5,O=C(c1ccc(CNc2c(N3CCCC3)c(=O)c2=O)cc1)N1CC=C(c2ccccc2)CC1,-7%,1%,-1.6%
nt,CCSc1nnc2ccc(-c3ccc(C)cc3)nn12,-73%,-14%,0.2%
-1,CN(C)C(=S)N=Nc1[nH]c2ccccc2c1O,-48%,-19%,-1.3%
nt,CC[C@@]12C(=O)N(c3ccccc3)C(=O)N1[C@H](c1ccc(OC)cc1)[C@@H]1C(=O)N(C(C)(C)C)C(=O)[C@@H]12,nt,1%,-1.3%
-9,O=C(NCCOCc1ccc(Cl)cc1)c1ncn[nH]1,0%,-17%,2.6%
4,Cc1ccc(NC(=O)c2ccccc2N(C)S(C)(=O)=O)cc1C,-6%,4%,-5.2%
3,Cc1ccc2nc(N3CCN(S(=O)(=O)c4ccc5c(c4)OCCO5)CC3)c(C#N)cc2c1,-5%,?,?
nt,O=C(CN(Cc1ccccc1)C(=O)CNS(=O)(=O)c1ccc(Cl)cc1)NCC1CCCO1 (configuration not stated),4%,2%,-4.6%
-10,O=C(NN=C1CCCCCC1)c1c[nH]c2ccccc12,-51%,-14%,-0.1%

Next section, overlapping the part above by five compounds.
GLA inh pH 4.5,molecule,miR-21 reporter,Rango release inh,Rango-impB inh
-9,O=C(NCCOCc1ccc(Cl)cc1)c1ncn[nH]1,0%,-17%,2.6%
4,Cc1ccc(NC(=O)c2ccccc2N(C)S(C)(=O)=O)cc1C,-6%,4%,-5.2%
3,Cc1ccc2nc(N3CCN(S(=O)(=O)c4ccc5c(c4)OCCO5)CC3)c(C#N)cc2c1,-5%,?,?
nt,O=C(CN(Cc1ccccc1)C(=O)CNS(=O)(=O)c1ccc(Cl)cc1)NCC1CCCO1 (configuration not stated),4%,2%,-4.6%
-10,O=C(NN=C1CCCCCC1)c1c[nH]c2ccccc12,-51%,-14%,-0.1%
4,NS(=O)(=O)c1cccc(NC(=S)NCc2ccc3c(c2)OCO3)c1,1%,4%,-0.1%
-10,CS(=O)(=O)N(CC(=O)Nc1ccccc1-c1ccccc1)c1cccc(F)c1,0%,0%,0.3%
2,Cc1cc(C)cc(NC(=O)CN2CCN(CCN=CC3=C(O)CC(c4ccc(Cl)cc4)CC3=O)CC2)c1 (configuration not stated),-2%,-12%,-0.6%
5,CCCC/C(C)=N/NC(=O)NC1CCCCC1,-9%,11%,2.0%
-5,COc1ccc(OCCCC(=O)Nc2nc(C)c(C(C)=O)s2)cc1,6%,26%,-2.5%
nt,COc1ccc(S(=O)(=O)N2CCc3ccccc3C2)cc1C(=O)O,0%,-17%,-1.6%
nt,O=C(CN1C(=O)CSc2ccc(S(=O)(=O)N3CCOCC3)cc21)NCc1ccc(Cl)cc1,1%,-4%,0.0%
4,O=C(Nc1cccc(C(=O)O)c1)/C(=C\c1ccc2c(c1)OCO2)NC(=O)c1ccccc1,4%,-7%,-2.5%
5,Cc1nc2cc(C(F)(F)F)ccc2n1C1CCN(CC(=O)N2CCCC2)CC1,-6%,-27%,?
-11,N#C/C(=C\c1cccc(O)c1)C(=O)Nc1ccc2c(c1)OCCO2,-16%,-3%,2.3%

Fetched by compound from above:
GLA inh pH 4.5,molecule,miR-21 reporter,Rango release inh,Rango-impB inh
-10,CS(=O)(=O)N(CC(=O)Nc1ccccc1-c1ccccc1)c1cccc(F)c1,0%,0%,0.3%
-5,COc1ccc(OCCCC(=O)Nc2nc(C)c(C(C)=O)s2)cc1,6%,26%,-2.5%
-11,N#C/C(=C\c1cccc(O)c1)C(=O)Nc1ccc2c(c1)OCCO2,-16%,-3%,2.3%

Following part:
GLA inh pH 4.5,molecule,miR-21 reporter,Rango release inh,Rango-impB inh
nt,O=C1CC[C@@H]2CC3(C[C@@H]4CCN1[C@H]24)Nc1ccccc1NC3=NC1CCCCC1 (some centres not stated),nt,-14%,-1.7%
nt,CN(CC(=O)Nc1cccc(C(F)(F)F)c1)C1=NS(=O)(=O)c2ccccc21,nt,-18%,?
-5,N#C/C(=C\c1ccc(O)cc1)c1nc2ccccc2o1,-38%,?,?
nt,Cc1cc(C)c(C(=O)N(CCN(C)C)CC2CCCN(Cc3ccccc3F)C2)o1 (configuration not stated),-3%,23%,8.9%
nt,Cc1ccsc1C(=O)N1CCCC(N2CCN(c3cccc(Cl)c3)CC2)C1 (configuration not stated),14%,-1%,-3.5%
-7,COC(=O)c1cccc(S(=O)(=O)N2CCC(C)CC2)c1,-4%,10%,1.4%

Bioassay records from PubChem BioAssay.
